Screening results (PubChem BioAssay)
AF4-AF9 inh: MLL-AF4/AF9 protein interaction inhibition | P42568 | AlphaScreen, biotin-AF4 peptide binding to FLAG-AF9 | inhibition, % at 10 µM | actives 0.47% (n = 350,000);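 active = every replicate reaching a set inhibition limit, whatever the replicate mean, cut at about 25% in these data; inconclusive = mean inhibition reaches that limit but some replicates miss it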;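 note: 0% = plate neutral control median and 100% = total signal loss; the record names both 10 and 1 µM as test concentration; the first replicate is given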
Target sequence (P42568 whole entry, looked up): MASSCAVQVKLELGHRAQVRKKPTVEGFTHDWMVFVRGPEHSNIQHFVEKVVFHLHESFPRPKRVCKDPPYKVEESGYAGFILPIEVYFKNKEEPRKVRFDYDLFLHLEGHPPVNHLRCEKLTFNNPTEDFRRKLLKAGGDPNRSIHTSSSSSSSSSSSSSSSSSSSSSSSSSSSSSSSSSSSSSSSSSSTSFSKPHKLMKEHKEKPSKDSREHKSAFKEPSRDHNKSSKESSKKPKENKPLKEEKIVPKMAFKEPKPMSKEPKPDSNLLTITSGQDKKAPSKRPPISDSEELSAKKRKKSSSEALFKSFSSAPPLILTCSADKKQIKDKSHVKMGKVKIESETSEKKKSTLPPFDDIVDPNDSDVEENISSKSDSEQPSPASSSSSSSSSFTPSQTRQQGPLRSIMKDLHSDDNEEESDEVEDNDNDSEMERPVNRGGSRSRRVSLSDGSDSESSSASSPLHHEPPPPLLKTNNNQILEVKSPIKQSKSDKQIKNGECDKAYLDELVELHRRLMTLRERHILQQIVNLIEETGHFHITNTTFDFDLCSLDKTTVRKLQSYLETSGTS
T cruzi repl: blocks replication of Trypanosoma cruzi; T. cruzi beta-gal in NIH3T3, luminescence, 90 h; inhibition, % (no concentration beside the values); actives 1.4% (n = 300,000);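 active = mean inhibition across valid replicates above about 55%, limit read from the data; inconclusive = mean below that limit but half or more replicates reach it; inactive = mean below it, under half of replicates reach it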;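 note: signal also drops with host cell toxicity which is not excluded here; 0% = plate median of DMSO wells and 100% = zero luminescence signal; higher percent means less beta-gal luminescence so fewer parasites; stock transfer was 50 nL into about 50 µL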
rRNA inh HTS: inhibitors of bacterial rRNA selective over humanized ribosomes; AID 720706; E. coli WT GFP vs humanized-ribosome RFP mutants, fluorescence, 24 h; active compounds read low; DMSO median 0, no signal -100; actives 1.6% (n = 350,000); GFP signal change (wild-type ribosome), % (no concentration beside the values);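 active = significant combined selectivity score with lowered wild-type GFP, culture density cut under 30%, mutant RFP and density less affected; inactive = any of these conditions unmet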; note: one replicate is shown; some compounds called inactive have numbers as strong as hits
ALR inh: human ALR oxidase inhibition via reduced H2O2; P55789; purified ALR, DTT oxidation, H2O2 HRP-luminol luminescence; inhibition, % (no concentration beside the values); actives 3.8% (n = 290,000); AID 485317;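 active = mean and each replicate at 75% or more; inconclusive = only one of the two met; inactive = neither met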;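 note: stock transfer was 7.5 nL into about 7.5 µL; 0% = neutral wells and 100% = wells with inactivated enzyme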
Target sequence (P55789 whole entry, looked up): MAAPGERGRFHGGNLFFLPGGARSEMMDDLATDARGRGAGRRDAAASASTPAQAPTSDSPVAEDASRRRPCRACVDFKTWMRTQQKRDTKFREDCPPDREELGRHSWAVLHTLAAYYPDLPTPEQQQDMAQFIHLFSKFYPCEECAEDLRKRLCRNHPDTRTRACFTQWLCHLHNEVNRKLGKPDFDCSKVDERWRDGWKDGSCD
FGF22 binding: shifts melting point of recombinant human FGF22 | Q9HCT0 | recombinant FGF22 thermal shift, SYPRO orange fluorescence; percent of sucrose octasulfate shift, DMSO zero | calls only at 9.99 µM | actives 1.5% (n = 340,000) | AID 651658;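 active = melting point raised past a set limit in the mean and every replicate; inconclusive = no clear call; three in four hits are not shown here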
Target sequence (Q9HCT0 whole entry, looked up): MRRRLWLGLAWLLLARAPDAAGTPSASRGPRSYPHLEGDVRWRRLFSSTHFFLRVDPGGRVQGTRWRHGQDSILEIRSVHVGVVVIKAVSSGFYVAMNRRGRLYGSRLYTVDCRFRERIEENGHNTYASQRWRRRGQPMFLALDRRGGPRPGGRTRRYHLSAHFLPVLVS
Calb FLC: C. albicans growth modulation with fluconazole; C. albicans CaCi-2 (fluconazole-resistant clinical isolate) + fluconazole, Alamar Blue growth, 48 h; growth inhibition, % (test concentration not listed); actives 0.57% (n = 300,000); AID 1979;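 active = most replicates above 75%; inconclusive = exactly half above 75%; inactive = most below 75%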;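 note: all wells also contain fluconazole at 8 µg/ml as a sub-toxic cotreatment; 0% = median of DMSO wells and 100% = median of geldanamycin control wells; wells of about 8 µL received 7.5 nL stock; the first replicate is given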
RanGTP-Impb inh: disruptors of Ran-importin-beta complex formation – biochemical, FRET, CFP-Ran, YFP-importin-beta, homogeneous, primary screen; cell-free CFP-Ran/YFP-importin-beta FRET ratio; inhibition, % (no concentration beside the values); actives 1.1% (n = 300,000);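 active = most replicates above 15%; inconclusive = exactly half above 15%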;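 note: 0% = DMSO wells and 100% = Ran loaded with GDP instead of GTP; wells of about 40 µL received 100 nL stock; the first replicate is given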
Beta apoptosis: blocks beta cell apoptosis; actives 0.8% (n = 300,000); INS-1E cytokine-induced death, ATP luminescence, 48 h; percent of positive-control rescue, neutral wells zero; protection from apoptosis, % (test concentration not listed);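 active = all replicates at 75% or more, or half of them and the mean; inconclusive = half reach 75% but not the mean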;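 note: 0% = cytokine-treated negative control wells and 100% = positive control rescue; higher means more ATP so stronger rescue from cytokine killing; wells of about 40 µL received 100 nL stock; the first replicate is given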
rRNA inh HTS OD600: also measured in rRNA inh HTS; calls as there; OD600 change, %; measured here: OD600 growth;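 optical density of the mix in the first replicate; 0 = DMSO median and -100 = no signal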
rRNA inh HTS RFP: also measured in rRNA inh HTS; calls as there; RFP signal change, %; measured here: RFP humanized mutant strains;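 first replicate; 0 = DMSO median and -100 = no signal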
An asterisk follows results filed as active; i = inactive; ? = inconclusive; nt = not tested or not shown.

smiles	AF4-AF9 inh	T cruzi repl	rRNA inh HTS	rRNA inh HTS OD600	rRNA inh HTS RFP	ALR inh	FGF22 binding	Calb FLC	RanGTP-Impb inh	Beta apoptosis
COc1cccc(C(=O)NCC(c2cccs2)N2CCOCC2)c1 (centres undefined)	-1.5	nt	3	4	-3.0	0	i	nt	nt	2
O=C(Nc1ccc2c(c1)CCC2)c1cc(F)cc(F)c1	-4.1	nt	-6	-19	0.8	1	i	nt	nt	6
O=C(c1ccc(S(=O)(=O)N2CCCCC2)cc1)N1CCN(c2ccccc2F)CC1	nt	10	nt	nt	nt	3	nt	-4	?	5
O=C(CN1CCOCC1)N/N=C/c1ccc(-c2ccc(Br)cc2)o1	-2.8	10	3	8	2.9	-7	i	-9	?	-9
COc1cccc(CNC2CCCCCCC2)c1OC	-1.4	-9	-1	-7	-3.6	nt	i	-15	0.3	2
CCOc1ccc(/C=C2\SC(=S)N(CCC(=O)Nc3ccc(C(=O)O)cc3)C2=O)cc1	-3.2	4	2	12	-0.5	1	i	-3	?	nt
CNC(=O)COC(=O)/C=C/c1cccc(F)c1	-2.3	3	16	12	0.5	-6	nt	-10	0.4	-1
COC(=O)CNc1nc(Cl)nc(Nc2ccc(Cl)cc2)n1	-3.8	-2	26	17	0.4	-18	i	1	1.8	-2
CC(C)c1nnc(NC(=O)CCC(=O)Nc2ccc3cn[nH]c3c2)s1	-5.3	0	8	2	-0.6	-20	i	5	0.4	-8
Cc1cc(C(F)(F)F)nn1Cc1n[nH]c(=S)n1-c1cccc(Cl)c1	1.9	21	-1	-3	-0.1	-2	i	20	7.5	6
CCOC(=O)c1c(CSC(=N)N)n(-c2ccc(C)cc2)c2cc(Br)c(OC(C)=O)cc12	nt	22	nt	nt	nt	66	nt	12	-0.8	9
O=C(NCc1cccnc1)C(=O)Nc1cc2c3c(c1)CC(=O)N3CCC2	nt	7	nt	nt	nt	8	nt	1	2.2	nt
CC(C)(CO)Nc1nc(N2CCCC2)nc(N2CCCC2)n1	nt	4	nt	nt	nt	nt	nt	6	-11	-2
CC(C)CCN(C(=S)Nc1cccc(F)c1)C1CCN(C(C)C)CC1	-1.9	3	9	-1	-0.8	-10	i	3	-3.4	-10
CCc1ccc(-c2cc(C)no2)cc1S(=O)(=O)Nc1cc(C)ccn1	1.4	-7	5	17	-0.4	-6	i	2	3.5	-3
CCOC(=O)CC(=O)c1cc(OC)c(OC)c(OC)c1	nt	-18	nt	nt	nt	44	nt	-12	8.1	0
CCC1(CC)Cc2ccccc2C(C2=C(O)CC(C)(C)CC2=O)=N1	nt	-1	nt	nt	nt	-9	nt	1	?	-8
Cc1cc(NC(=O)C(C)SCC(=O)Nc2ccccc2C(C)(C)C)no1 (centres undefined)	-32	2	1	4	-0.5	-11	i	8	-1.3	-1
CNS(=O)(=O)c1ccc(NC(=O)C(CCSC)NC(N)=O)cc1 (centres undefined)	nt	-4	nt	nt	nt	nt	nt	5	0.3	-1
CC1(C)COC(c2coc3ccccc3c2=O)OC1	nt	-6	nt	nt	nt	-1	nt	-4	-0.8	-5
COc1ccc(C2CC(c3ccc(OC)cc3)n3nc(N)nc3N2)cc1 (centres undefined)	-3.0	11	7	4	-2.1	?	i	1	-2.8	-5
CC1CCCC(C)N1C(=O)COc1ccc(C(=O)N/N=C/c2ccc(C(=O)O)cc2)cc1 (centres undefined)	-1.8	1	10	6	0.1	1	i	4	-4.0	1
Nc1c(C(=O)Nc2ccc(S(=O)(=O)N3CCCC3)cc2)sc2nc3cc4c(cc3cc12)CCC4	nt	35	nt	nt	nt	-1	nt	6	-12	100*
COc1ccc(-c2ccc(SCC(=O)NCC3CCCO3)nn2)cc1OC (centres undefined)	-0.4	-3	5	6	-1.6	5	nt	8	3.4	-1
Cc1ccc(S(=O)(=O)OCCC2=CC(=O)CCN2Cc2ccccc2)cc1	0.4	nt	-18	-21	5.3	5	i	nt	nt	1
O=C1CC(c2ccccc2)CC(O)=C1C=NCCN1CCNCC1 (centres undefined)	nt	-6	nt	nt	nt	-19	nt	-6	4.5	-4
CC(=O)c1cccc(NC(=O)C2CCN(C(=O)c3cccs3)CC2)c1	1.5	-2	1	-11	0.5	nt	i	-3	-4.9	-17
CCCCSC1(SCCCC)N=C(N)C2(C#N)C(c3ccccc3)NC(C)=CC12C#N (centres undefined)	nt	-7	nt	nt	nt	nt	nt	-4	7.2	-8
Cc1cc(C)n(-c2ccc(NC(=O)C3CCN(Cc4ccccn4)CC3)cc2)n1	-1.9	-10	0	3	-1.9	2	i	8	4.1	-10
CCC(C)C(NC(=O)c1ccc(Cl)cc1)C(=O)O (centres undefined)	nt	0	nt	nt	nt	-2	nt	-4	0.2	-5
COc1ccc(C)cc1S(=O)(=O)N1CCOCC1	-1.0	-6	16	9	1.2	-1	i	7	?	0
O=C(NCc1ccc(F)cc1)C1CCC(=O)N1C1CCCCC1 (centres undefined)	nt	-3	nt	nt	nt	-18	nt	2	9.5	1
CCOc1cccc(/C=N/NC(=S)NCCN2CCOCC2)c1O	?	-8	10	18	2.6	49	i	-2	1.5	24
CCOc1ccc(N2C(=O)/C(=C/c3ccccn3)SC2=S)cc1	nt	-3	nt	nt	nt	3	nt	-1	1.1	2
N#CC1=C(N)Oc2cc(N)ccc2C1c1ccc(F)cc1 (centres undefined)	nt	-13	nt	nt	nt	98*	nt	-11	76*	-3
O=[N+]([O-])c1ccc(/C=N/Nc2nc(N3CCCCC3)nc(N3CCCCC3)n2)cc1	8.1	9	nt	nt	nt	0	i	-16	1.2	4
CN(Cc1ccccc1)C(=O)CN1CCN(S(=O)(=O)c2ccc(Cl)c(Cl)c2)CC1	2.4	nt	-46	-72	-11	-34	i	nt	nt	-9
CCOc1ccc(-n2nc(C(=O)NC3CCCCC3)c3ccccc3c2=O)cc1	-1.3	6	3	16	0.1	-19	i	-5	-2.5	8
CCCNC(=O)c1ccccc1NC(=O)Cc1ccc(OC)c(S(=O)(=O)N2CCOCC2)c1	1.2	-5	2	4	2.3	2	i	3	-1.7	0
CCC(C)(C)NC(=O)C(OC(=O)c1ccco1)c1ccc(OC)cc1 (centres undefined)	-12	-4	20	14	-1.0	-6	i	-124	1.7	-2
O=C(Nc1ccccc1)NC1CCN(CCCN2C(=O)c3ccccc3C2=O)CC1	nt	-5	nt	nt	nt	-5	nt	-4	1.5	-3
O=C(CSc1ccccc1)NCC(c1ccco1)N1CCCCC1 (centres undefined)	5.1	nt	13	8	2.3	2	i	nt	nt	-3
CC(C)C(NC(=O)c1ccc(S(=O)(=O)N2CCOCC2)cc1)c1nc2ccccc2[nH]1 (centres undefined)	nt	-9	nt	nt	nt	nt	nt	?	0.9	2
CCCCN(CCCC)CCCNC(=O)C1CC(c2ccc(C(F)(F)F)cc2)=NO1 (centres undefined)	-2.1	7	8	-5	7.9	-1	i	-25	-1.6	-1
O=P(Cc1ccccc1)(c1ccccc1)c1ccccc1	nt	-4	nt	nt	nt	1	nt	-7	0.7	-4
CC1(C)CC(=O)c2cc(N=C/C(C(=O)c3ccccc3)=C(\O)c3ccccc3)c(=O)oc2C1	-0.9	-19	-24	-38	10	nt	i	-16	4.7	-10
CCSc1ccccc1C(=O)Nc1nc2ccccc2c(=O)[nH]1	-0.2	1	11	11	-1.0	11	i	10	0.0	12
COc1ccc(C)cc1NC(=O)CSc1nnc(-c2cc(C)[nH]n2)n1N	-4.8	-2	3	2	-3.1	-3	i	5	-0.2	-3
Cc1cccc(OCC(=O)Nc2ccc(C(=O)Nc3ccccc3C(=O)O)cc2)c1C	0.6	9	4	5	1.7	0	i	4	0.8	-5
COCCN(CCOC)C(=O)CN1C(=O)NC2(CCCc3sccc32)C1=O (centres undefined)	-0.8	-3	5	18	-2.1	-3	i	-11	6.2	-7
CSc1ccccc1C(=O)C1CCCN(S(=O)(=O)N(C)C)C1 (centres undefined)	9.1	6	0	-3	3.2	-6	nt	-2	?	-3
CCN(CC)C(=O)c1ccc(NS(=O)(=O)c2ccccc2)cc1	nt	3	nt	nt	nt	-1	nt	-14	0.0	-2
CCCCN1CNC(=S)N(CCc2ccc(OCC)c(OCC)c2)C1	0.8	nt	2	-7	-0.2	4	i	-13	6.7	-15
COCCNC(=O)CN1CCOc2ccccc21	1.6	-20	8	14	3.8	nt	i	8	6.3	-2
CCC(C(=O)NCc1ccc(C)cc1)c1ccccc1 (centres undefined)	1.1	-13	-19	-15	-4.8	0	i	-2	-0.2	-3
COc1ccc(CCC(=O)NNC(=O)c2cc(Cl)ccc2OC)cc1	-2.8	-7	3	3	-0.2	nt	nt	-5	0.4	-1
O=C(O)c1ccc(NC(=S)Nc2ccccc2)cc1	4.2	0	2	3	1.5	99*	i	-2	2.3	-1
CCCOc1ccc(N2C(=O)CC(SCC(N)C(=O)OCC)C2=O)cc1 (centres undefined)	0.7	-16	-1	0	-2.6	0	i	9	4.0	0
Cc1nc(NCCO)c(C#N)c2c1COC(C)(C)C2	nt	-15	nt	nt	nt	-11	nt	1	3.4	2
CCN(Cc1ccc2c(c1)OCCO2)C(=O)CN1C(=O)NC2(CCCCC2)C1=O	-0.6	nt	-1	-1	-1.6	11	i	nt	nt	-8

Remaining list, next part
smiles	AF4-AF9 inh	T cruzi repl	rRNA inh HTS	rRNA inh HTS OD600	rRNA inh HTS RFP	ALR inh	FGF22 binding	Calb FLC	RanGTP-Impb inh	Beta apoptosis
C=CCNC(=O)/C(C#N)=C/c1ccc(SC)cc1	3.0	-8	-7	0	2.7	6	nt	-30	-12	-5
O=C(N/N=C/c1ccc(Br)o1)c1cc([N+](=O)[O-])cc([N+](=O)[O-])c1	-2.5	34	14	11	-3.6	-8	i	5	3.7	-9
CCCN1Cc2cccc(C(=O)NCc3ccc4c(c3)OCO4)c2C1=O	nt	7	nt	nt	nt	0	nt	-8	-2.7	-6
CCC(CC)C(=O)Nc1cccc(C(=O)Nc2ccc(S(=O)(=O)Nc3ccc(C)cc3)cc2)c1	nt	37	nt	nt	nt	-15	nt	-6	?	44
O=C(O)c1ccccc1-c1nc2ccccc2c(=O)n1O	1.0	-3	22	15	0.2	-24	i	1	-0.2	-1
CC(=O)Nc1ccccc1NC(=O)CC(C)(C)C	nt	-14	nt	nt	nt	-8	nt	-1	0.0	-7
Cc1ccc(C)c(CS(=O)(=O)c2cn(CC(=O)N3CCC(C)CC3)c3ccccc23)c1	nt	25	nt	nt	nt	-8	nt	3	-1.6	4
CCOC(=O)c1ccc(Nc2nnc3nc(C)cc(C)n23)cc1	nt	-7	nt	nt	nt	0	nt	-2	7.4	-1
c1cc(-c2n[nH]c(-c3ccncc3)n2)ccn1	-9.0	-21	12	0	1.0	nt	i	-5	0.7	-3
O=C(NNC(=O)c1cccs1)c1ccccc1	-8.6	-6	15	19	1.2	2	i	-1	0.0	-1

A portion of the library, so the mix of outcomes need not match the whole.
